# UCH37 DUB inh: human UCH37 deubiquitinating enzyme inhibition; purified proteasome/UCH37, Ub-AMC cleavage fluorescence; AID 588478; 0.33% of 330,000 active; inhibition, % (no concentration beside the values);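 active means mean of two replicates above 20%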;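 further: 0% = compound-free wells with enzyme and 100% = wells lacking proteasome; stock transfer was 100 nL into about 20 µL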
# Target sequence (Q9Y5K5 whole entry, looked up): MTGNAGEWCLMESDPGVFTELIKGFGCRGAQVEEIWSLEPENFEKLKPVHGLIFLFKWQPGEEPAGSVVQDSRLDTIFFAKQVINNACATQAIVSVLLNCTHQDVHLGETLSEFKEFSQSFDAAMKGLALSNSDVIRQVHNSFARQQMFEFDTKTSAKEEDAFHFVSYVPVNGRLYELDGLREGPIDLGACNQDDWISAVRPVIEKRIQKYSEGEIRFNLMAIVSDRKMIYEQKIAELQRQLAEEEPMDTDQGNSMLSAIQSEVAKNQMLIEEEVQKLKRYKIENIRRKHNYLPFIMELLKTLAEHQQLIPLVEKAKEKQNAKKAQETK
#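 Signal – fluorescence, ex 355 nm, em 460 nm · System – Proteasome-bound UCH37 · Input – 0.15 nM proteasome as dispensed · Timing – 30 min preincubation with enzyme, 25 min cleavage at room temperature · Read-out basis – percent inhibition of cleavage signal versus uninhibited and no-proteasome wells · Medium – Tris-HCl pH 7.4 with ATP-MgCl2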
# Beta2AR agonist: activates human beta-2 adrenergic receptor causing internalization. response, % (no concentration beside the values). P07550. Am2.2-beta2AR cells, FAP receptor internalization, flow cytometry; reference of the scale not given here. 0.43% of 340,000 active;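 active means response above a set limit, near 3 SD of response in nonfluorescent compounds, cut at about 42% in these data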;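 further: stock transfer was 100 nL into about 11 µL; a reference agonist was the positive control; negative values mostly stem from fluorescent compounds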
# Target sequence (P07550 whole entry, looked up): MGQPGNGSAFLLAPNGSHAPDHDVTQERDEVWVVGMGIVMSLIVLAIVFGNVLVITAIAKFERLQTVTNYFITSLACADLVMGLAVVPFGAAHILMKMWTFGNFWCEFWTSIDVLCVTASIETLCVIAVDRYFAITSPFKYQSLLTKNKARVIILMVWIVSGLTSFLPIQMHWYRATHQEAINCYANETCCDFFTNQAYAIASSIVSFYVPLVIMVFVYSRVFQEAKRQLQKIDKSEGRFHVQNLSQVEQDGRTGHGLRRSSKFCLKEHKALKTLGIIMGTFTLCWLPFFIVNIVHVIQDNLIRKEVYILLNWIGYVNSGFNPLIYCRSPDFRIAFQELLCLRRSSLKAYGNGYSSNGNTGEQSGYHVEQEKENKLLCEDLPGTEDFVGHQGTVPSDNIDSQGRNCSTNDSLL
# Ecoli growth: inhibitors of Escherichia coli growth; OD600, 23 h; hits give low values; OD600 absorbance (no concentration beside the values); 0.21% of 330,000 active; AID 1053175;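 active means OD600 absorbance below the run mean of sample wells minus 3.6 SD, in any replicate, cut at about 0.56 in these data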;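 further: stock transfer was 300 nL into about 60 µL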
# HNF4A DNA FP: change in binding of human HNF4 alpha to DNA; HNF4a-FITC DNA binding, fluorescence polarization, 1 h; activity change, % at 10 µM; 0.3% of 360,000 active; AID 1224865; in the data active means activity change above about 30%, passing the limit was not always enough;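 further: controls were the assay level and a saturating level of protein; the project sought stronger binding though the title names inhibitors; some compounds called inactive have numbers as strong as hits; positive values seem to mean higher polarization but the record does not say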
# A1 inh: inhibitors of the anti-apoptotic protein A1, read as caspase activation. AID 2462. MEF A1-2A-BIM cells, Caspase-Glo 3/7 luminescence, 3 h; percent of clofoctol response, vehicle zero. 0.066% of 330,000 active. caspase activation, % (test concentration not listed);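 active means over half of replicate activation scores above 10%, or exactly half above 10 with the replicate mean above 10; inconclusive means replicate mean below 10 yet half the replicates above 10; inactive means over half of replicates below 10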;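 further: wells of about 30 µL received 50 nL stock; many hits fall short of the cut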
# LANA-H2A inh: blocks KSHV LANA binding to histone H2A/H2B; cell-free LANA-H2A/H2B peptide, fluorescence polarization; 0.6% of 320,000 active; Q9QR71; AID 2629; inhibition, % (concentration not given with the values); in the data active means inhibition mostly above about 10%, no sharp cut-off; inactive means mostly below about 6.7%;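 further: stock transfer was 7.5 nL into about 10 µL; 0% = median of vehicle wells and 100% = median of positive control wells; one replicate is shown; the record names a cut of 25% in any replicate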
# Vif A3G: inhibitors of Vif binding to APOBEC3G peptide, primary screen, biochemical, TR-FRET, GST-Vif 1-94, biotin-A3G peptide, dose response retest (AID 1117319); TR-FRET GST-Vif / biotin-A3G peptide binding; higher % means a stronger effect; test concentration not given here; strong numbers were not always called active; one-dose inhibition, %; IC50 in µM for titrated hits; 0.57% of 260,000 active;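 active means above the screen mean plus three standard deviations and confirmed in dose response; inconclusive means results disagree or hit not tested in dose response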;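 further: Vif residues 1-94 fused to GST binding biotinylated APOBEC3G peptide 110-148; 0% = full assay without inhibitor and 100% = GST in place of GST-Vif; retest series ran down from 100 µM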
# * marks the source's active call; other numbers are inactive results; ? = inconclusive; . = not tested or not shown; & = joins results of further samples.
SMILES,UCH37 DUB inh,Beta2AR agonist,Ecoli growth,HNF4A DNA FP,A1 inh,LANA-H2A inh,Vif A3G
CCOC(=O)N1CCN(CCC(=O)Nc2ccc(Br)cc2)CC1,0.8,9,0.62,0.4,0.7,-2.3,20%
COCCNS(=O)(=O)c1ccc(Cl)c(C(=O)NC2CCN(Cc3ccccc3)CC2)c1,1.4,1,0.7,0.0,-0.6,6.5,.
CCNC(=O)CC1C(=O)N(c2ccccc2)C(=O)N1Cc1ccc(OC)cc1 (stereo not given),1.8,6,0.66,-0.8,-0.4,-1.6,3%
CCOC(=O)N1CCC(N2Cc3cccc(C(=O)NCc4ccc(OC)cc4)c3C2=O)CC1,-0.7,.,0.67,.,0.5,9.7,10%
COCCCNCCC(CCC(C)C)c1ccc2c(c1)OCO2 (stereo not given),4.9,-3,0.68,0.4,-0.1,-0.4,0%
Cc1ccc2nc(-c3ccc(NC(=O)COC(=O)c4cncc(Br)c4)cc3)sc2c1,-55,1,0.68,10,.,.,-1%
CCCN1C(=O)CC(c2ccco2)Sc2ccccc21 (stereo not given),5.9,17,0.7,-3.4,-1.2,1.4,?
CC(NS(=O)(=O)c1ccc(Cl)cc1)C(=O)NCCC1=CCCCC1 (stereo not given),13,7,0.7,0.4,-0.1,2.5,-13%
O=C(Nc1ccccc1N1CCN(C(=O)c2ccccc2)CC1)c1ccccc1Cl,0.5,-1,0.68,-0.2,1.3,2.2,?
O=C(NC(=O)c1ccccc1F)OCc1ccc(Cl)cc1Cl,1.1,3,0.66,0.5,0.8,-0.5,-5%
CCCN1CC(=O)N2C(c3ccccc3)c3[nH]c4ccccc4c3C[C@H]2C1=O (stereo not given in full),-0.7,7,0.62,-1.2,0.3,-0.8,-1%
COc1ccc(CCNC(=O)C2CCCN(C(=O)c3ccc(Cl)cc3)C2)cc1 (stereo not given),1.8,1,0.63,-0.9,1.1,3.8,.
Cc1occc(=O)c1OCc1c(Cl)cccc1Cl,0.7,-2,0.69,0.0,-0.2,1.1,-1%
O=S(=O)(Nc1ccccc1Cl)c1ccc(F)cc1,3.9,0,0.66,-1.4,-0.5,-2.4,14%
CN(C)c1nc(Nc2ccccc2)nc(N(C)C)n1,1.0,5,0.64,4.8,0.0,0.6,0%
COc1cccc(CN2C(=O)CN(C3CCCCC3)C(=O)C2c2ccc(F)cc2)c1 (stereo not given),1.4,2,0.71,15,2.0,1.7,2%
Cc1c(O)c(=O)ccn1C,-2.0,16,.,1.0,0.3,-6.8,23%&1%
CC12CC3CC(C)(C1)CC(C(=O)NNC(=O)c1ccncc1)(C3)C2,5.4,10,0.72,0.5,0.0,-7.7,-1%
O=C(Nc1ccccc1N1CCCCC1)c1cccs1,2.8,-3,0.71,-0.7,-0.1,4.8,0%
CCN(Cc1ccccc1)CC(O)COC(c1ccc(OC)cc1)c1ccc(OC)cc1 (stereo not given),0.7,1,0.65,3.1,0.9,-4.6,.
Cc1ccc(C(=O)N/C(=C/c2ccco2)C(=O)NCC2CCCO2)cc1 (stereo not given),1.2,4,0.65,2.3,-0.2,.,11%
CCCN(C(=O)/C=C/c1ccco1)c1c(N)n(Cc2ccccc2)c(=O)[nH]c1=O,6.7,7,0.65,-1.6,-0.2,1.1,-3%
CCOC(=O)c1ccc(N2C(=O)C3CC=C(C)CC3C2=O)cc1 (stereo not given),5.5,7,0.7,1.4,0.1,3.0,25%
O=C1CCCc2ccccc2N1Cc1c(Cl)cccc1Cl,3.1,-6,0.71,1.6,-0.2,-3.0,3%
O=C(NCCc1ccc(Cl)cc1)c1ccc(CNc2c(N3CCOCC3)c(=O)c2=O)cc1,9.3,-3,0.65,1.6,-0.2,0.9,6%
# Next section.
SMILES,UCH37 DUB inh,Beta2AR agonist,Ecoli growth,HNF4A DNA FP,A1 inh,LANA-H2A inh,Vif A3G
O=C(CSc1nnnn1C1CCCC1)c1ccc2c(c1)OCCO2,4.5,-8,0.68,4.0,0.1,-1.1,-1%
Cc1nc(NCCO)c(C#N)c2c1COC(C)(C)C2,-43,3,0.73,-1.2,0.4,-0.4,6%
COCCn1c(-c2ccccc2)nc2oc3cc(OC)ccc3c(=O)c2c1=O,1.8,1,0.73,-1.9,-1.1,1.3,1%
Cc1ccc(NCCC(=O)c2ccc(Cl)cc2)cc1,2.9,1,0.68,-1.5,.,.,-1%
COc1ccc(NC2=C(C(C)=O)C(c3ccc4c(c3)OCO4)C(C(C)=O)C(C)(O)C2)cc1 (stereo not given),8.3,3,0.69,-0.2,0.4,3.5,6%
O=c1[nH]c(SCc2ccccc2)nnc1-c1ccccc1,5.0,-1,0.69,2.8,0.0,-0.7,-4%
Cc1c(C)c2ccc(OCC(=O)NCCCn3ccnc3)c(C)c2oc1=O,-59,-16,0.67,0.5,0.6,-3.0,-8%
COc1ccc(/C=N\NC(=O)c2ccc(F)cc2)cc1COc1cc(F)ccc1[N+](=O)[O-],.,3,.,-2.4,0.0,-1.1,.
CCc1ccc(N2CC(C(=O)OCC(=O)Nc3ccccc3C)CC2=O)cc1 (stereo not given),2.1,-3,0.67,-0.3,0.6,-2.7,.
CC(C)OCCCN1CN(S(=O)(=O)c2cccs2)c2nc3ccccc3nc21,-9.5,.,0.73,.,1.2,0.9,?
COc1ccc(CNC(=O)c2c[nH]c3c(OC)cc(OC)cc3c2=O)cc1,-20,-1,0.73,2.4,-0.4,1.1,.
O=C(N1CCN(Cc2ccccc2)CC1)C(Cl)(Cl)Cl,0.9,0,0.67,2.3,-0.4,2.2,1%
COc1ccc(Cc2c(O)nc(SCC(=O)c3ccc(OC)cc3)[nH]c2=O)cc1,16,-1,0.69,0.9,0.6,2.3,-5%
O=C(CC1C(=O)NCCN1Cc1ccccc1)NCCN1CCCCC1=O (stereo not given),-9.5,2,0.74,-0.1,.,.,5%
Cc1ccc(/C=N/NC(=O)Nc2ccccc2)o1,.,1,.,-0.7,-1.9,6.2,3%
COc1cccc(NC(=O)c2c(F)cccc2F)c1,-0.7,5,0.61,-6.3,-4.6,-2.4,.
CC(Oc1ccc(-n2cnnn2)cc1)C(=O)O (stereo not given),-0.9,-1,0.66,2.8,-0.5,-2.1,-1%
Cn1c(SCC(=O)Nc2cccc(O)c2)nnc1-c1ccc(S(=O)(=O)N2CCOCC2)cc1,0.8,-8,0.68,0.7,0.1,-4.0,?
O=C(/C=C/c1ccccc1)NNC(=O)C1CC1,-3.3,-5,0.73,3.3,0.8,5.3,4%
COc1ccccc1OCC(=O)NCc1n[nH]c(=O)c2ccccc12,-0.3,-6,0.7,-1.4,2.2,0.0,8%
Cc1ccc(NC(=O)C2C3C=CC4(O3)C2C(=O)N(CCCN2CCCCC2)C4C(=O)NC2CCCCC2)cc1Cl (stereo not given),4.6,-5,0.65,-2.9,0.8,-0.9,.
FC(F)(F)c1cc(Cl)c2nc(-c3ccccc3)cn2c1,1.1,-17,0.74,1.1,-12,-3.5,-5%
Oc1ccc(/C=N\Nc2nncc(-c3ccccc3)n2)cc1,.,-11,.,-5.6,-0.3,-2.7,-5%
Cc1ccnc2nc(C(=O)Nc3cc(Cl)ccc3N3CCOCC3)nn12,3.1,-2,0.74,-2.6,-0.2,-0.3,2%
O=C1CCCCc2sc(Br)c([N+](=O)[O-])c2N1,2.3,2,0.68,-0.5,2.0,1.8,22%

# Sorted by formula weight (descending): part of the list above
SMILES,UCH37 DUB inh,Beta2AR agonist,Ecoli growth,HNF4A DNA FP,A1 inh,LANA-H2A inh,Vif A3G
CC(C)OCCCN1CN(S(=O)(=O)c2cccs2)c2nc3ccccc3nc21,-9.5,.,0.73,.,1.2,0.9,?
Cc1c(C)c2ccc(OCC(=O)NCCCn3ccnc3)c(C)c2oc1=O,-59,-16,0.67,0.5,0.6,-3.0,-8%
COc1ccc(CNC(=O)c2c[nH]c3c(OC)cc(OC)cc3c2=O)cc1,-20,-1,0.73,2.4,-0.4,1.1,.
COc1ccccc1OCC(=O)NCc1n[nH]c(=O)c2ccccc12,-0.3,-6,0.7,-1.4,2.2,0.0,8%
O=c1[nH]c(SCc2ccccc2)nnc1-c1ccccc1,5.0,-1,0.69,2.8,0.0,-0.7,-4%

# In the list so far, these have a nitro group on carbon:
SMILES,UCH37 DUB inh,Beta2AR agonist,Ecoli growth,HNF4A DNA FP,A1 inh,LANA-H2A inh,Vif A3G
COc1ccc(/C=N\NC(=O)c2ccc(F)cc2)cc1COc1cc(F)ccc1[N+](=O)[O-],.,3,.,-2.4,0.0,-1.1,.
O=C1CCCCc2sc(Br)c([N+](=O)[O-])c2N1,2.3,2,0.68,-0.5,2.0,1.8,22%

# Continued.
SMILES,UCH37 DUB inh,Beta2AR agonist,Ecoli growth,HNF4A DNA FP,A1 inh,LANA-H2A inh,Vif A3G
O=C(Oc1ccccc1)Oc1ccc2c(c1)oc(=O)c1ccccc12,3.7,1,0.69,-2.8,-2.5,-5.8,-62%
CCC(NC(=O)CNC(=O)CNC(=O)c1ccc(Cl)cc1Cl)c1ccc(C)cc1 (stereo not given),.,-7,.,1.0,-1.1,7.4,-3%
COc1ccc(C(=O)NCCNC(=O)c2ccc(OC)cc2)cc1,2.3,-6,0.7,-0.8,-0.3,2.5,.
COc1ccc(-n2c(=O)c3c4c(sc3n(CC(=O)NCc3ccco3)c2=O)CCC4)c(OC)c1,4.0,-14,0.73,-1.0,0.4,-1.9,19%
Cc1ccc(-n2c(-c3ccccc3)cc(/C=N/NC(=O)CC#N)c2-c2ccccc2)cc1,.,.,.,.,0.0,-7.3,5%
CC(=O)COC(=O)c1ccc2noc(-c3ccccc3)c2c1,-2.8,-2,0.69,2.1,0.2,4.3,.
Cn1c2ccccc2c(=O)c2cc(C#Cc3ccc(N)cc3)ccc21,1.9,5,0.82,8.7,-3.2,1.2,.
COc1cc(/C=N/NC(=O)c2cc(-c3cccs3)nc3ccccc23)ccc1O,.,5,.,-3.4,0.0,-6.4,23%
CCOc1ccc(-c2csc(Cn3c(CN4CCN(C)CC4)nc4ccccc4c3=O)n2)cc1,1.1,7,0.69,4.4,1.1,-0.3,12%
CN1C(C(=O)NCc2ccccc2)CC2Cn3c(nc4ccccc43)C21 (stereo not given),-0.1,1,0.69,4.0,-0.8,6.7,-3%
Cc1ccccc1NC(=O)c1c2c(nc3ccccc13)CCC2,2.4,12,0.64,-2.7,0.3,3.7,-7%
COc1ccc(C(=O)N/N=C/c2sc(N3CCOCC3)nc2-c2ccccc2)cc1OC,.,13,.,2.7,0.0,-4.1,.
Cc1sc2ccc3sccc3c2[n+]1C,-1.2,11,0.72,-2.8,-0.6,-4.7,.
O=C(OCC(F)(F)F)c1cccc(COc2ccc3ccccc3c2)c1,-1.2,11,0.74,-1.2,-8.3,2.1,0%
COc1ccc(C2(O)CC3CCC(C2)N3c2nc(C)cc(C)c2C#N)cc1 (stereo not given),-23,0,0.71,2.4,0.6,-2.6,9%
O=C(Nc1ccc(F)c(Cl)c1)c1ccccc1NC(=O)C1CCCCC1C(=O)O (stereo not given),.,8,.,-3.2,.,.,3%
Cc1nc(CNS(=O)(=O)c2ccc(Oc3ccccc3)cc2)cs1,2.8,-3,0.67,3.6,0.4,-1.1,-1%
O=C(COc1ccc2ccccc2c1Br)N1CCCC1,3.1,1,0.67,-0.7,0.1,-3.1,-7%
O=C(O)C1CCCCC1C(=O)Nc1ccccn1 (stereo not given),3.4,4,0.71,2.5,0.6,3.2,?
CS(=O)(=O)c1ccc(Cl)c(NC(=O)COC(=O)c2ccc(S(=O)(=O)N3CCCC3)cc2)c1,2.9,-3,0.73,2.0,0.1,-1.4,0%
CC(C)(C)c1ccc(C2=CC(c3ccccc3)n3ncnc3N2)cc1 (stereo not given),-25,-3,.,-10,-0.5,8.8,.
Cc1csc(-c2cnn(-c3ccccc3)c2NC(=O)c2ccccc2)n1,4.2,6,0.66,3.0,1.0,1.0,-4%

# No enrichment for hits; 2.1% or so of the library scored in one or more.
